# Source: PubChem (Broad Institute)
# ID4 SMM = binders of human ID4 protein, primary screen, biochemical, small molecule microarray, single point; DNA-binding protein inhibitor ID-4 (Homo sapiens), P47928; Flag-ID4 binding, fluorescence F/B; calls only; 1.2% of 31,000 active; AID 624137, 2012;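 active means spot signal over background at p below 0.07 in all four prints; compounds were printed on slides so no solution concentration is given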;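 further: a binder raises fluorescence above local background on the spot; about 2 pmol printed per array spot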
# Target sequence (P47928 whole entry, looked up): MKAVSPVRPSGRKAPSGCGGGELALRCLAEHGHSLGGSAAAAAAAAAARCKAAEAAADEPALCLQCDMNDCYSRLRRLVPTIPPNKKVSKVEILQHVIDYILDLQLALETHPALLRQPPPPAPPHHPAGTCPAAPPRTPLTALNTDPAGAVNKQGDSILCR
# Calls only; i = inactive.
SMILES,ID4 SMM
COc1ccc(-c2cnc3c(c2)C(=O)N([C@H](C)CO)C[C@H](C)[C@H](CN(C)Cc2ccccc2)O3)cc1,i
Cc1ccc(NC(=O)C(C)n2nc([N+](=O)[O-])c(Br)c2C)cc1Cl (centres undefined),i
O=C(O)CSc1nnc2n(CCc3ccccc3)c(=O)c3c4c(sc3n12)CCCC4,i
C[C@@H]1CN([C@@H](C)CO)C(=O)c2cc(/C=C/c3ccccc3)cnc2O[C@@H]1CN(C)C(=O)CN(C)C,i
CC(C)C#Cc1cnc2c(c1)C(=O)N([C@H](C)CO)C[C@@H](C)[C@@H](CN(C)C(=O)c1ccccc1F)O2,i
COc1ccc(Cl)cc1N(CC(=O)Nc1ccc(C(F)(F)F)cc1)S(C)(=O)=O,i
NC(=O)c1c(NC(=O)COc2ccc(Br)cc2Cl)sc2c1CCCC2,i
C[C@@H]1CC(=O)c2c(ccc3c2C(=O)c2cccc(O)c2C3=O)C1,i
COC(=O)C[C@H]1C=C[C@@H](NC(=O)Nc2ccc(C(F)(F)F)cc2)[C@@H](CO)O1,i
COc1ccccc1C#Cc1ccc2c(c1)O[C@@H](CN(C)C)[C@H](C)CN([C@H](C)CO)S2(=O)=O,i
CCC(=O)N[C@@H]1CC[C@H](CC(=O)NCc2cc(F)cc(F)c2)O[C@H]1CO,i
CCCC#Cc1ccc2c(c1)O[C@@H](CN(C)C(=O)c1cccnc1)[C@H](C)CN([C@@H](C)CO)S2(=O)=O,i
Cc1occc1C(=O)Nc1cccc(Cn2cccn2)c1,i
COc1ccc(NC(=O)N(C)C[C@H]2Oc3ncc(-c4cccnc4)cc3C(=O)N([C@@H](C)CO)C[C@H]2C)cc1,i
CCOc1ccc(NC(=O)CSc2nnc(-c3ccc(Cl)c(Cl)c3)n2C)cc1,i
C[C@@H]1CN([C@@H](C)CO)C(=O)c2cc(C3=CCCC3)cnc2O[C@@H]1CN(C)C(=O)C1CC1,i
COc1ccccc1N1CCN(CCCCNC(=O)c2ccc(-c3ccc(C(C)=O)cc3)cc2)CC1,i
C[C@H]1CN([C@@H](C)CO)C(=O)c2cc(C#CCc3ccccc3)cnc2O[C@H]1CN(C)CC1CCOCC1,i
CC12CCCCC1C1(C=CC(=O)C=C1)C(c1ccccc1)=N2 (centres undefined),i
O=C(C[C@@H]1CC[C@@H](NC(=O)c2cccc(F)c2)[C@H](CO)O1)NCc1ccc(Oc2ccccc2)cc1,i
COc1ccc(-c2coc3c(OC)c(O)ccc3c2=O)cc1,i
C[C@H](CO)N1C[C@H](C)[C@H](CN(C)C(=O)C2CCC2)Oc2ncc(-c3cccc(F)c3)cc2C1=O,i
CC1(C)C=C(c2ccc(C3=CC(C)(C)NC(C)(C)C3)s2)CC(C)(C)N1,i
CCc1ccc2nc(-c3cccc(OC)c3)cc(C(=O)NCc3ccco3)c2c1,i
C[C@H](CO)N1C[C@H](C)[C@@H](CN(C)Cc2ccccc2)Oc2ccc(NC(=O)C3CC3)cc2CC1=O,i
Cc1csc2nc(SCC(=O)Nc3ccc([N+](=O)[O-])cc3)[nH]c(=O)c12,i
Cc1cccc(C)c1NC(=O)COc1ccc2cc(-c3ccccc3)c(=O)oc2c1,i
N#Cc1ccc(NC(=O)CCCn2cc([N+](=O)[O-])cn2)cc1,i
O=C(C[C@H]1C[C@H]2c3cc(NC(=O)C4CCC4)ccc3O[C@H]2[C@@H](CO)O1)NCCN1CCCCC1,i
Cc1nc(SCC(=O)N(c2ccccc2)c2ccccc2)n[nH]1,i
C[C@H](CO)N1C[C@H](C)[C@H](CN(C)Cc2ccc3c(c2)OCO3)Oc2c(cccc2N(C)C)C1=O,i
C[C@H](CO)N1C[C@H](C)[C@H](CN(C)C(=O)CN(C)C)Oc2ncc(C#Cc3ccccc3)cc2C1=O,i
CC(C)CC#Cc1cnc2c(c1)C(=O)N([C@@H](C)CO)C[C@@H](C)[C@H](CN(C)Cc1ccccc1F)O2,i
COC(=O)c1ccc(Cl)c(NC(=O)CSc2nc3c(c(C(F)(F)F)n2)CCCC3)c1,i
C[C@@H](NC(=O)C[C@H]1C=C[C@@H](NC(=O)C2CC2)[C@H](CO)O1)c1ccccc1,i
COc1cccn(Cc2nnc(SCC(=O)c3ccccc3)o2)c1=O,i
Cc1ccccc1CN(C)C[C@@H]1OCc2cnnn2CCCC(=O)N([C@H](C)CO)C[C@@H]1C,i
N#Cc1c(NC(=O)COc2ccc(C(=O)Nc3cc(Cl)ccc3Cl)cc2)sc2c1CCC2,i
COc1ccc(C(=O)CSc2nnc(-c3ccc([N+](=O)[O-])cc3)o2)cc1,i
CN1CCN(C2=Nc3ccccc3Oc3ccc(Cl)cc32)CC1,i
COc1ccc(S(=O)(=O)N(C)CC(=O)Nc2cc([N+](=O)[O-])ccc2C)cc1,i
COc1ccc(NC(=O)N[C@H]2CC[C@@H](CC(=O)NCc3ccccn3)O[C@H]2CO)cc1,i
CCC(CC)C(=O)N1c2ccccc2CCc2ccccc21,i
COc1ccc(NC(=O)N[C@H]2C=C[C@@H](CC(=O)NC3CCC3)O[C@@H]2CO)cc1,i
O=C(C[C@H]1C[C@H]2c3cc(NC(=O)Cc4ccncc4)ccc3O[C@H]2[C@@H](CO)O1)NCc1ccccn1,i

# Pulled one by one from the list above (7):
SMILES,ID4 SMM
COc1ccc(-c2coc3c(OC)c(O)ccc3c2=O)cc1,i
C[C@H](CO)N1C[C@H](C)[C@H](CN(C)Cc2ccc3c(c2)OCO3)Oc2c(cccc2N(C)C)C1=O,i
O=C(C[C@H]1C[C@H]2c3cc(NC(=O)Cc4ccncc4)ccc3O[C@H]2[C@@H](CO)O1)NCc1ccccn1,i
NC(=O)c1c(NC(=O)COc2ccc(Br)cc2Cl)sc2c1CCCC2,i
Cc1nc(SCC(=O)N(c2ccccc2)c2ccccc2)n[nH]1,i
COC(=O)C[C@H]1C=C[C@@H](NC(=O)Nc2ccc(C(F)(F)F)cc2)[C@@H](CO)O1,i
C[C@H](CO)N1C[C@H](C)[C@H](CN(C)C(=O)CN(C)C)Oc2ncc(C#Cc3ccccc3)cc2C1=O,i

# Next structures follow.
SMILES,ID4 SMM
CCOc1ccc(NC(=O)C(C)Sc2nnc(C)n2-c2ccccc2)cc1 (centres undefined),i
Cc1sc2ncn(CC(=O)NCc3ccco3)c(=O)c2c1-c1ccc(Cl)cc1,i
CN(C)c1ccc2c(c1)[C@H]1C[C@@H](CC(=O)N3CCc4ccccc4C3)O[C@@H](CO)[C@H]1O2,i
c1ccc(-n2c(SCc3nc4ccccc4s3)nnc2-c2cccs2)cc1,i
Cc1cc(C)c2nc(-c3ccccn3)cc(C(=O)NCc3cc(C)n(C)n3)c2c1,i
C[C@H](O)C#Cc1cnc2c(c1)C(=O)N([C@H](C)CO)C[C@H](C)[C@@H](CN(C)Cc1cccc(F)c1)O2,i
CC(=O)c1cccc(NC(=O)C(C)N2C(=O)C3C4C=CC(C5CC45)C3C2=O)c1 (centres undefined),i
COC(=O)c1cc(NC(=O)Cc2ccccc2[N+](=O)[O-])ccc1Cl,i
CC(C)C#Cc1ccc2c(c1)O[C@@H](CN(C)C)[C@@H](C)CN([C@@H](C)CO)S2(=O)=O,i
COc1ccc(-c2cnc3c(c2)C(=O)N([C@H](C)CO)C[C@@H](C)[C@H](CN(C)Cc2ccccc2)O3)cc1,i
O=c1[nH]c(CSc2nnc(-c3cccnc3)n2C2CCCCC2)nc2ccccc12,i
Cc1cc(C(F)(F)F)nc(SCC(=O)Nc2sc3c(c2C#N)CCCC3)n1,i
Cc1nc(SCC(=O)Nc2ccc(Br)cc2)n[nH]1,i
C[C@@H]1CN([C@H](C)CO)C(=O)c2cc(-c3ccccc3F)cnc2O[C@H]1CN(C)C(=O)C1CCOCC1,i
O=C(NCc1ccc(F)cc1)[C@H]1C[C@H]2C(=O)NCC(=O)N2[C@H]1c1cccc(OCCO)c1,i
COC(=O)c1ccccc1NC(=O)c1ccc(NC(=O)CSc2ccc(C)cc2)cc1,i
C[C@H](CO)N1C[C@H](C)[C@@H](CN(C)C(=O)CN(C)C)Oc2ncc(C#Cc3ccccc3)cc2C1=O,i
O=C(N[C@H]1CC[C@@H](CC(=O)N2CCc3ccccc3C2)O[C@@H]1CO)C1CCC1,i
Cc1ccc(NC(=O)CN(c2cccc(F)c2)S(C)(=O)=O)cc1Cl,i
Cc1ccc(NC(=O)COc2ccccc2Cl)c([N+](=O)[O-])c1,i
COC(=O)c1ccccc1NC(=O)CSc1n[nH]c(C)n1,i
CCn1c2ccccc2c2cc(NC(=O)CSc3nnnn3-c3ccccc3)ccc21,i
CN(C)CC(=O)Nc1ccc2c(c1)[C@@H]1C[C@H](CC(=O)NCc3ccc4c(c3)OCO4)O[C@@H](CO)[C@@H]1O2,i
C[C@H](CO)N1C[C@H](C)[C@H](CN(C)C(=O)c2ccccc2F)Oc2ncc(-c3ccccc3)cc2C1=O,i
CC(Oc1ccc(Cl)cc1Cl)C(=O)Nc1ccccc1C(=O)NC1CCCCC1 (centres undefined),i
Cc1nc(SCC(=O)Nc2ccc(Oc3ccccc3)cc2)n[nH]1,i
COc1ccc(-c2c(C#N)c(SCC(=O)Nc3cccc(F)c3)nc3c2CCC3)cc1,i
COc1ccc(OC)c(C2C(C(=O)c3cccs3)C(=O)C(=O)N2Cc2cccnc2)c1 (centres undefined),i
CC/C(=C(\c1ccccc1)c1ccc(OCCN(C)C)cc1)c1ccccc1,i
COc1ccc([N+](=O)[O-])cc1NC(=O)CCC1COc2ccccc2O1 (centres undefined),i
C[C@@H]1CN([C@H](C)CO)S(=O)(=O)c2ccc(C#Cc3ccccn3)cc2O[C@H]1CN(C)Cc1cccc(F)c1,i
Cc1cc(N(CC(=O)Nc2ccc(F)cc2)S(C)(=O)=O)ccc1Br,i
Cc1cc(I)ccc1NC(=O)Cn1c([N+](=O)[O-])cnc1C,i
CCOC(=O)c1cnc2c(cnn2CC)c1NN=C(C)C,i
COc1ccc(Cl)cc1NC(=S)NCc1ccc(S(N)(=O)=O)cc1,i
CNC[C@H]1Oc2ncc(-c3cccc(F)c3)cc2C(=O)N([C@H](C)CO)C[C@H]1C,i
Cc1nn2c(CN(C(=O)c3cccs3)c3ccccc3)nnc2c2ccccc12,i
C[C@@H]1CN([C@@H](C)CO)S(=O)(=O)c2ccc(C3=CCCC3)cc2O[C@H]1CN(C)CC1CCCC1,i
C[C@@H]1CN([C@@H](C)CO)S(=O)(=O)c2ccc(/C=C/c3ccccc3)cc2O[C@H]1CN(C)C(=O)C1CC1,i
CC(C)C#Cc1ccc2c(c1)O[C@H](CN(C)CC1CCOCC1)[C@@H](C)CN([C@@H](C)CO)S2(=O)=O,i
Cc1cccc(-c2noc(CN(C(C)C)S(=O)(=O)c3ccc(F)cc3)n2)c1,i
Cc1cc(C)cc(N(C(C)C(=O)Nc2cccc(C(F)(F)F)c2)S(C)(=O)=O)c1 (centres undefined),i
N#Cc1c(C(F)(F)F)cc(-c2ccccc2)nc1SCCC(=O)Nc1ccccc1,i
COc1ccccc1NC(=O)CNS(=O)(=O)c1ccc(C(C)(C)C)cc1,i
COc1ccc(S(=O)(=O)N(C)CC(=O)Nc2ccccc2)cc1C,i

# Gathered by group, those above containing a furan ring, fused or not.
SMILES,ID4 SMM
Cc1occc1C(=O)Nc1cccc(Cn2cccn2)c1,i
CCc1ccc2nc(-c3cccc(OC)c3)cc(C(=O)NCc3ccco3)c2c1,i
Cc1sc2ncn(CC(=O)NCc3ccco3)c(=O)c2c1-c1ccc(Cl)cc1,i

# Later entries:
SMILES,ID4 SMM
Cc1ccc(NC(=O)CCN2C(=O)c3cccc([N+](=O)[O-])c3C2=O)c(Br)c1,i
CC(=O)N(C)C[C@H]1Oc2ncc(C#Cc3ccc(F)cc3)cc2C(=O)N([C@@H](C)CO)C[C@@H]1C,i
COc1ccccc1NC(=O)N(C)C[C@H]1Oc2ncc(C#CC(C)C)cc2C(=O)N([C@@H](C)CO)C[C@@H]1C,i
O=C1CSC(C23CC4CC(CC(C4)C2)C3)N1 (centres undefined),i
Cc1sc2ncn(CC(=O)Nc3cccc(C(F)(F)F)c3)c(=O)c2c1-c1ccc(Cl)cc1,i
C[C@@H]1CN([C@H](C)CO)S(=O)(=O)c2ccc(C#CCN(C)C)cc2O[C@@H]1CN(C)Cc1ccccc1,i
O=c1cc(C23CC4CC(CC(C4)C2)C3)[nH][nH]1,i
O=C(COc1ccc(Cl)cc1Cl)Nc1ccccc1[N+](=O)[O-],i
c1ccc(CSc2nnc3n(CCOc4ccccc4)c4ccccc4n23)cc1,i
CCc1ccc(OCC(=O)Nc2ccc3oc(-c4ccccc4F)nc3c2)cc1,i
C[C@H]1CN([C@@H](C)CO)S(=O)(=O)c2ccc(C#CC3CCCC3)cc2O[C@@H]1CN(C)C,i
CCCC#Cc1cnc2c(c1)C(=O)N([C@H](C)CO)C[C@H](C)[C@H](CN(C)C(=O)CCN1CCCCC1)O2,i
O=C(C[C@H]1CC[C@H](NC(=O)C2CCOCC2)[C@@H](CO)O1)NCC1CCCCC1,i
CC(Oc1cccc(Cl)c1)c1nc(-c2cccnc2)no1 (centres undefined),i
Cc1ccc(Cl)cc1N(CC(=O)Nc1ccc(I)cc1)S(C)(=O)=O,i
Cc1cc2nn(-c3ccc(Cl)cc3)nc2cc1NC(=O)COc1ccccc1C,i
COc1ccc(NC(=O)Cc2c(OC)ccc3cc(Br)ccc23)c(OC)c1,i
CS(=O)(=O)N(CC(=O)Nc1ccc(Cl)c(Cl)c1)c1cc(Cl)cc(Cl)c1,i
CCOC(=O)c1c(NC(=O)C(C)Oc2ccc3c(C)cc(=O)oc3c2)sc2c1CCC2 (centres undefined),i
COc1cccc(C#Cc2cnc3c(c2)C(=O)N([C@@H](C)CO)C[C@H](C)[C@@H](CN(C)C(C)=O)O3)c1,i
O=C1O[C@@H](c2ccccc2)[C@@H](c2ccccc2)N2[C@@H](c3ccc(OCCO)cc3)[C@]3(C(=O)Nc4ccc(C#CC5=CCCCC5)cc43)[C@@H](C(=O)NC[C@H](O)c3ccccc3)[C@H]12,i

# An excerpt (hit frequency here may not be typical).
